MT1-MMP act inh – blocks activation of human MT1-MMP; GFP/RFP ratio change, % at 20 µM; 360,000 compounds, 0.061% hits; P50281; HT1080 RFP-PRO-GFP cells, GFP/RFP ratio fluorescence, overnight; percent of plate control window, DMSO zero;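 active = GFP/RFP ratio change of at least 30% with cell ATP level not reduced by more than half and red fluorescence within 50% of control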; also: strong numbers were not always called active
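Material – HT1080 RFP-PRO-GFP cells · Control set – DMSO wells and RFP-L50D-GFP cells · Incubation – overnight cell settling, then overnight compound exposure, 37 °C, 5% CO2 · Compound dosing – single-point 20 µM compound, 1% DMSO · Read-out – GFP/RFP fluorescence ratio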
Rce1 inhib – inhibitors of yeast Ras-converting enzyme; Q03530; yeast membranes, quenched prenylated peptide cleavage fluorescence; calls only; 290,000 compounds, 0.27% hits;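 active = fall in fluorescence gain of 50% or more versus controls, with final raw signal at or below 3038400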;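 also: plate controls were neutral control wells for no effect and wells lacking membranes for full effect; tested at 10 µM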
Target sequence (Q03530 whole entry, looked up): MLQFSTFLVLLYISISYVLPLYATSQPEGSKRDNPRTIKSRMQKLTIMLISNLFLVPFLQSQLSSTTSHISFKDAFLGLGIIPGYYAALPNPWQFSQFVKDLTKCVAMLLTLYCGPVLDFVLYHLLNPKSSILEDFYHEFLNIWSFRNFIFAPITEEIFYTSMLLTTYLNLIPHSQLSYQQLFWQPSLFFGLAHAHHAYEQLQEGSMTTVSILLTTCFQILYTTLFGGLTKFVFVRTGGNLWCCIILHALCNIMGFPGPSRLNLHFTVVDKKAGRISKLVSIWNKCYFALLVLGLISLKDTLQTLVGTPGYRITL
HIV Env fusion – blocks HIV Env-driven cell-cell fusion | HeLa-JRFL Env/CEM21 cell fusion, luciferase | inhibition, % at 12.3 µM | 360,000 compounds, 1.1% hits;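 active = mean replicate inhibition score of at least 50 and every replicate individually at or above 50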;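 also: 0% = plate neutral controls and 100% = maraviroc near 300 nM; one replicate is shown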
eIF4H FP inh – inhibitors of RNA binding by human eIF4H | Q15056 | eIF4H fluorescence polarization binding assay | inhibition, % at 35 µM | 290,000 compounds, 0.94% hits | AID 2012;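 active = 50% or more with normal probe brightness, or confirmed in later tests; about a fifth of its hits are not listed in these tables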;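 also: calls also rest on retests at 20 µM and on dose response follow-up; 0% = protein and probe with vehicle and 100% = probe without protein; strong numbers were not always called active; many hits fall short of the cut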
CSC inhib – cancer stem cell inhibition | cancer stem cell-like cells viability, luminescence | inhibition, % at 7.5 µM | 300,000 compounds, 1.1% hits;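 active = mean at 75% or more and at least half the replicates too; tested in HMLE shEcad cells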;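 also: 0% = median of negative and 100% = median of positive control wells; the first replicate is given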
PABP polyA inh – blocks human PABP binding to poly(A) RNA | P11940 | fluorescence polarization | inhibition, % at 35 µM | 290,000 compounds, 1% hits | AID 2014;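 active = 50% or more with normal probe brightness, or confirmed in later tests; about a fifth of its hits are not listed in these tables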;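 also: calls also rest on retests at 20 µM and on dose response follow-up; controls were probe without protein and protein plus probe with vehicle; some compounds called inactive have numbers as strong as hits; many hits fall short of the cut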
Target sequence (P11940 whole entry, looked up): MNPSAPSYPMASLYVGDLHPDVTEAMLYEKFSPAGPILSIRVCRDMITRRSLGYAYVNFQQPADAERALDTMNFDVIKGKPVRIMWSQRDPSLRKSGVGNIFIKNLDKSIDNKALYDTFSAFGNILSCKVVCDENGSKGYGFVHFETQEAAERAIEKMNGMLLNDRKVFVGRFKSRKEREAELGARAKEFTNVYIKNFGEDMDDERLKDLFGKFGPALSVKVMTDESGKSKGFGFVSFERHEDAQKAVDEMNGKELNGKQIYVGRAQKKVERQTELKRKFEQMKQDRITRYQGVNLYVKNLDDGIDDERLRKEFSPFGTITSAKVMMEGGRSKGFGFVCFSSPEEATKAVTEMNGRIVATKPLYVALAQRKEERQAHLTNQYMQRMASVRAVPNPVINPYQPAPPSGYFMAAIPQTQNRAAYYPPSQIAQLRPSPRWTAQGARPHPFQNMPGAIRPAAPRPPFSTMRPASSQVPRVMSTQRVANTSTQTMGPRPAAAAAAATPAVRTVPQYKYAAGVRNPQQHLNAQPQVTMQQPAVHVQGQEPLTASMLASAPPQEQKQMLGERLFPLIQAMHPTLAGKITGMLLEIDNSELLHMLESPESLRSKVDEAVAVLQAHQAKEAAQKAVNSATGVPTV
UUG fidelity – alters start codon recognition fidelity in yeast; AID 602363; activity score, % at 18.7 µM; S. cerevisiae UUG-firefly luciferase reporter, luminescence/redox ratio; 350,000 compounds, 0.13% hits;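 active = replicate mean at a twofold rise or more, about +100% in these data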;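 also: firefly luciferase made from a UUG start codon reports start codon fidelity; reporter light over untreated wells divided by growth signal over untreated wells; some hits fall short of that in this replicate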
eIF4H FP inh retest – recorded beside eIF4H FP inh, whose call it bears; inhibition, %; compound at 20 µM; confirmation average;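 mean of two retest wells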
PABP polyA inh retest – recorded beside PABP polyA inh, whose call it bears; inhibition, %; compound at 20 µM; confirmation repeats;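 mean of two retest wells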
MT1-MMP act inh RFP – further read-out of MT1-MMP act inh, marked with its call; RFP signal change, %; measured here: RFP expression control read;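 0 = vehicle wells; hits needed this value within 50% of zero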
An asterisk follows results filed as active; i = inactive; x = not tested or not shown.

SMILES	MT1-MMP act inh	MT1-MMP act inh RFP	Rce1 inhib	HIV Env fusion	eIF4H FP inh	CSC inhib	PABP polyA inh	UUG fidelity	others
CCOC(=O)C1=C(c2ccccc2)Nc2ncnn2C1c1cccc(OC)c1OC (stereo unspecified)	0	-1	i	x	5	-6	9	9
CS(=O)(=O)N(CC(=O)Nc1cccnc1)c1ccc2c(c1)OCO2	0	3	i	-23	-3	-1	36	-2
CCOc1cccc(OCCOCCN(C)C)c1	0	4	i	31	5	0	26	-15
COc1cc2c(cc1OC)-c1cc(NC3CCCCCCC3)nc(=O)n1CC2	4	1	i	x	4	x	8	-8
Cc1c(C)c2c(OCC(=O)NC3CC3)cc3c(c2oc1=O)CCC(C)(C)O3	2	5	i	x	4	7	-8	-12
O=C(c1c[nH]c(C(=O)C(Cl)(Cl)Cl)c1)c1ccccc1F	1	-1	i	0	-3	21	-3	-27
CCCn1nc(C(=O)OCC(=O)Nc2cccc(S(N)(=O)=O)c2)c2ccccc2c1=O	1	7	i	-19	5	-11	-2	-9
CCN(CC)S(=O)(=O)c1ccc(-c2nnc(SCC(=O)Nc3nc(C)cs3)o2)cc1	10	1	i	x	4	-2	-7	-16
O=C(Cc1n[nH]c(=O)c2ccccc12)N1CCN(c2ccc(F)cc2)CC1	1	-3	i	-12	1	-14	6	x
CCOC(=O)c1cn2cccnc2n1	10	5	i	-7	-2	-13	7	-8
COc1cccc(NC(=O)CCNS(=O)(=O)c2cccc3nsnc23)c1	1	6	i	9	-1	1	-28	x
Cc1cc(C(=O)OCC(=O)c2c(N)n(C)c(=O)n(C)c2=O)c(C)o1	-1	7	i	x	6	-18	3	x
Cc1ccc(C(C)C)c(OCC(=O)NNC(=O)Cc2ccc(S(=O)(=O)N3CCOCC3)s2)c1	-1	-1	x	-2	x	3	x	-4
CCC(C)NC(=O)C(CCSC)NC(=O)c1ccccc1 (stereo unspecified)	5	4	i	x	-5	-6	-1	x
CCNC(=O)N(CC)C[C@H]1N[C@@](Cc2ccccc2)(C(=O)OC)[C@H]2C(=O)N(Cc3ccccc3)C(=O)[C@@H]12	-3	2	x	-22	x	-3	x	3
CCOC(=O)C1=C(C)OC(N)=C(C#N)C1c1cc2ccccc2nc1N1CCCCC1 (stereo unspecified)	x	x	i	x	60	-1	-7	x	eIF4H FP inh retest=-11;PABP polyA inh retest=4
CCN(CC)CCNC(=O)CCn1nc(-c2ccc(Cl)cc2)ccc1=O	1	3	i	4	0	x	2	-1
N#CCSc1nccc(-c2cc(Cl)sc2Cl)n1	-1	-1	i	x	3	-13	-1	-14
CCCCN(C)C(=O)c1sc2ncn(CC)c(=O)c2c1C	-1	4	i	x	-9	0	-16	-10
CCN(CC(=O)Nc1ccc(NC(C)=O)cc1)C(=O)C1(c2ccccc2)CC1	-4	4	x	-16	x	x	x	-5
O=C(Cn1nc2n(c1=O)-c1ccccc1SC2)N/N=C/c1ccncc1	3	5	i	9	0	-3	7	x
COCCNC(=S)N1CCN(c2nc(-c3ccccc3)cs2)CC1	3	-5	i	6	-14	-8	-7	-5
Cc1ccc(-n2nnnc2-c2cnc(-c3cccnc3)nc2C(F)(F)F)cc1	3	-5	i	45	-2	2	-3	-5
COC(=O)c1cc(S(=O)(=O)NCC2CCN(Cc3cc(C)ccc3C)CC2)cn1C	1	5	i	-5	4	7	-2	9
Cc1ccc(C)c(NC(=O)NCc2ccccn2)c1	2	-1	i	-18	-4	15	-2	-15
COc1ccc(-c2nc(CSCC(=O)N3CCc4ccccc4C3)c(C)o2)cc1OC	-2	5	i	2	7	-7	8	9
CCOc1ccc(S(=O)(=O)Nc2ccccc2C(=O)NCc2ccco2)cc1	-2	-1	i	x	-4	-3	-3	-1
CC1CC(C)CN(CC(=O)NNC(=O)COc2ccc(Cl)cc2)C1 (stereo unspecified)	-2	5	x	-1	x	x	x	-7
Cc1ccc2nc3c(cc2c1)c(NC(=O)c1ccco1)nn3CC(C)C	2	2	i	0	14	-9	11	x
O=C(c1ccco1)N1CCN(C(=O)c2cc3ccccc3oc2=O)CC1	5	5	i	-3	3	0	-7	-12

As a working copy, some entries already given:
SMILES	MT1-MMP act inh	MT1-MMP act inh RFP	Rce1 inhib	HIV Env fusion	eIF4H FP inh	CSC inhib	PABP polyA inh	UUG fidelity	others
COc1ccc(-c2nc(CSCC(=O)N3CCc4ccccc4C3)c(C)o2)cc1OC	-2	5	i	2	7	-7	8	9
CCOc1ccc(S(=O)(=O)Nc2ccccc2C(=O)NCc2ccco2)cc1	-2	-1	i	x	-4	-3	-3	-1
CC1CC(C)CN(CC(=O)NNC(=O)COc2ccc(Cl)cc2)C1 (stereo unspecified)	-2	5	x	-1	x	x	x	-7
Cc1ccc2nc3c(cc2c1)c(NC(=O)c1ccco1)nn3CC(C)C	2	2	i	0	14	-9	11	x
O=C(c1ccco1)N1CCN(C(=O)c2cc3ccccc3oc2=O)CC1	5	5	i	-3	3	0	-7	-12

(further entries)
SMILES	MT1-MMP act inh	MT1-MMP act inh RFP	Rce1 inhib	HIV Env fusion	eIF4H FP inh	CSC inhib	PABP polyA inh	UUG fidelity	others
CCOC(=O)c1cc2ccccc2n1CCN(CC)CC	-2	3	i	-11	0	-4	-6	-11
COc1ccc(NC(=O)C2CCCN2C(=O)OC(C)(C)C)cc1 (stereo unspecified)	0	1	i	19	7	-11	6	1
O=C(OCn1nnc2ccccc2c1=O)C1=COCCO1	0	-6	i	-50	-1	1	3	x
O=S(=O)(c1cccc(F)c1)N1CCCN(c2ccc(C(F)(F)F)cn2)CC1	5	2	i	36	9	6	0	-2
COc1ccccc1-n1c(CNC(=O)COc2ccccc2)n[nH]c1=S	5	5	i	-43	-4	-9	0	-23
CC(=NCCCNC1CCCCC1)C1=C(O)CC(C)(C)CC1=O	3	3	i	x	0	-16	-8	-8
CC(=O)N(C(C)=O)c1nc2nc(C)cc(C)n2n1	-1	2	i	-2	2	x	-7	1
COc1ccc(N2CCN(S(=O)(=O)c3cc4c5c(c3)C(C)C(=O)N5CCC4)CC2)cc1 (stereo unspecified)	3	-4	i	3	x	10	x	0
C=CCN(c1ccccc1OC)S(=O)(=O)c1cccc(C(=O)NCc2cccs2)c1	-9	-8	x	0	x	x	x	-9
O=C(NCc1ccccc1C(F)(F)F)C1CC(c2cccc(F)c2)=NO1 (stereo unspecified)	3	1	i	-16	-3	4	-7	-9
COc1ccc(NC(=O)c2oc3ccccc3c2CSC)cc1S(=O)(=O)N1CCOCC1	-4	0	x	-11	x	x	x	-13
CCc1c(-c2ccccc2)nc2sc3c(c2c1N)CCCC3	1	-8	i	-19	-16	7	-22	x
O=C(c1ccccc1Br)N1CCn2c1nc1ccccc12	1	-1	i	8	-4	-10	-8	x
COc1ccc(-c2cc3c(=O)n(CC(=O)NCCCc4ccccc4)ncn3n2)cc1	-2	2	i	x	-5	x	9	-5
O=C(CSc1nc2ccccc2c(=O)n1Cc1ccco1)NCCN1C(=O)CSC1=O	-5	-2	i	6	-7	-1	-5	-4

Pulled one by one from above (six):
SMILES	MT1-MMP act inh	MT1-MMP act inh RFP	Rce1 inhib	HIV Env fusion	eIF4H FP inh	CSC inhib	PABP polyA inh	UUG fidelity	others
CC(=NCCCNC1CCCCC1)C1=C(O)CC(C)(C)CC1=O	3	3	i	x	0	-16	-8	-8
O=S(=O)(c1cccc(F)c1)N1CCCN(c2ccc(C(F)(F)F)cn2)CC1	5	2	i	36	9	6	0	-2
O=C(OCn1nnc2ccccc2c1=O)C1=COCCO1	0	-6	i	-50	-1	1	3	x
O=C(NCc1ccccc1C(F)(F)F)C1CC(c2cccc(F)c2)=NO1 (stereo unspecified)	3	1	i	-16	-3	4	-7	-9
O=C(c1ccccc1Br)N1CCn2c1nc1ccccc12	1	-1	i	8	-4	-10	-8	x
COc1ccc(N2CCN(S(=O)(=O)c3cc4c5c(c3)C(C)C(=O)N5CCC4)CC2)cc1 (stereo unspecified)	3	-4	i	3	x	10	x	0

Continued.
SMILES	MT1-MMP act inh	MT1-MMP act inh RFP	Rce1 inhib	HIV Env fusion	eIF4H FP inh	CSC inhib	PABP polyA inh	UUG fidelity	others
Cc1ccc(S(=O)(=O)N2CCOCC2)cc1NC(=O)Cn1c(=O)ccn(Cc2ccccc2)c1=O	-3	-4	x	-13	x	x	x	-7
OCC[C@H]1C[C@@H](O)[C@H](O)[C@]2(CCCO2)O1	-9	-1	i	-27	x	-3	x	-8
COC(=O)c1cc(OCC(=O)Nc2ccc3c(c2)CCC3)cc(C(=O)OC)c1	0	0	x	x	x	11	x	6
CC(=O)c1cccc(NC(=S)NC(=O)c2cccc(C)c2)c1	-13	-10	i	-82	-2	-3	-5	-14
CCOc1c(Br)cc(C(=O)NCCCn2ccnc2)cc1OC	4	4	i	-1	-12	-8	-1	-13
Nc1ccc2nn(-c3ccc(F)cc3)nc2c1	2	3	i	-75	8	24	1	-12
CCCC(=O)N1CCN(c2ccc(NC(=O)c3cccs3)cc2Cl)CC1	8	3	i	0	-1	x	-5	x
O=C1c2oc3ccc(Br)cc3c(=O)c2C(c2cccc(F)c2)N1CCO (stereo unspecified)	7	2	i	x	-3	-9	-4	-11
COc1cc2c(cc1OC)CN(Cc1ccc(C)s1)CC2	0	2	i	x	15	-10	18	-31
Cc1nc2c(-c3ccccc3)c(C)nn2c(C)c1CCC(=O)N1CCOCC1	5	0	i	3	1	-18	3	-1
Cc1nc2sc(C#N)c(N)c2c2c1CCCC2	-7	-4	i	x	-4	-2	-2	-6
COc1ccc(CCN(C)CCCC(C#N)(c2cc(OC)c(OC)c(OC)c2)C(C)C)cc1OC (stereo unspecified)	-1	-1	i	-37	-6	6	-10	6
S=C(Nc1ccc2[nH]ccc2c1)NC1CCCCC1	9	-3	x	-18	-3	-3	3	-37
CCn1nc(NS(=O)(=O)c2ccccc2)c2cc3cccc(C)c3nc21	-6	-1	i	-46	-8	-10	10	-9

Source: PubChem (several laboratories)
